# Screens (PubChem)
# PKD1 inh: inhibitors of human PKD1 kinase, biochemical, fluorescence polarization; Serine/threonine-protein kinase D1 (Homo sapiens), Q15139; PKD1 kinase fluorescence polarization assay; inhibition, %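 (about 10 µM by stock and volumes)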; 200,000 compounds, 0.056% hits;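 active = inhibition of 50% or more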;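 note: controls were vehicle for no effect and a reference inhibitor for full effect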
# Target sequence (Q15139 whole entry, looked up): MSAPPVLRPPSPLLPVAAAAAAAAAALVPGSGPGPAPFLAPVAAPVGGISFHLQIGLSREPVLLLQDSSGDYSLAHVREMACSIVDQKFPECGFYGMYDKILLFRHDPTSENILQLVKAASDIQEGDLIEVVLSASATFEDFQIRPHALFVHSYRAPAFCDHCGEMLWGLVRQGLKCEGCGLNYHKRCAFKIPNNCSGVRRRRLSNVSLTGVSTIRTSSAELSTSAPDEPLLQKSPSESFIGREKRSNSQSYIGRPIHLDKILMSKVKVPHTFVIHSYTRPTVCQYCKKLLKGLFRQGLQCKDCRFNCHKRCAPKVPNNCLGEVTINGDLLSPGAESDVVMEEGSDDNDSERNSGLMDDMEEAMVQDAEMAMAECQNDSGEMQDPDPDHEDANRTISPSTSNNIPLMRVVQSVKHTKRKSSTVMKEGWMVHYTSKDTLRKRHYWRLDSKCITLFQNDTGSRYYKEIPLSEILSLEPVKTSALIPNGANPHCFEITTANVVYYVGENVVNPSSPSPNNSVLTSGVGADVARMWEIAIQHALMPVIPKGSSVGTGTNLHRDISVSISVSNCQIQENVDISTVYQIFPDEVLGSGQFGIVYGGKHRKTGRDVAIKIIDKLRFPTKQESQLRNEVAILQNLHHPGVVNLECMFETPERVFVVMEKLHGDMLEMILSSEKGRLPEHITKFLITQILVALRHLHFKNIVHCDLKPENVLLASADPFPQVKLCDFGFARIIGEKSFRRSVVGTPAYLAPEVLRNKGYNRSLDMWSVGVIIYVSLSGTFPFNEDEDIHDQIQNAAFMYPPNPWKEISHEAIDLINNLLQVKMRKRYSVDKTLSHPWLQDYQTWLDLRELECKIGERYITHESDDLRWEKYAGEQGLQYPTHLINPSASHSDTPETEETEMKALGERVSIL
# GALR2 ag: GALR2 receptor agonists, primary screen, cell-based; GALR2-expressing cells, agonist activation read-out; activation, %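 (tested at 5 µM)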; 140,000 compounds, 0.48% hits; AID 803, 2007;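 active = above mean plus 3 SD of all compounds, about 5% in these data, not always enough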;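 note: 0% = vehicle buffer wells and 100% = reference agonist at full effect; tested in CHO reporter cells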
# Insulin prom inh: inhibitors of insulin promoter-driven GFP, primary screen, imaging, TRM-6 cells (human fetal islet line), eGFP reporter, cell count; reporter expression induced with tamoxifen; inhibition, % at 2 µM; 130,000 compounds, 0.9% hits;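 active = inhibition above the mean plus 3 SD, with well images judged a real hit on visual review, cut at about 60% in these data, passing the limit was not always enough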
# HSV replic up: enhancers of HSV replication in host cells, fold increase, host cell viability; 220,000 compounds, 0.005% hits; HSV replication augmentation in cells; maximum fold increase;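 active = peak rise of 1.5-fold or more in the series; tested in PC3 cells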;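 note: first round at 10 µM; read as green reporter fluorescence; hits show the peak of a series up to 25 µM; 1 = signal of infected wells without compound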
# RGS16-Gao HTS: modulators of RGS16 binding to Galphao, primary screen, biochemical, human proteins, multiplexed bead flow cytometry; AID 1441, 2008; bead-based flow cytometry RGS16-Galphao binding, fluorescence; actives lie on both sides; binding response (% of control), % at 10 µM; 220,000 compounds, 0.38% hits; Regulator of G-protein signaling 16 (Homo sapiens) + Guanine nucleotide-binding protein …;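 active = below 25% or above 175%, edge rows of some plates excepted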;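 note: Galphao activated by GDP with aluminum fluoride before binding; 100% = wells without compound and 0% = beads without RGS; some results beyond the cut were filed as inactive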
# Insulin prom inh cell count: recorded beside Insulin prom inh, whose call it bears; normalized cell count, %; measured here: cell count, toxicity; reference of the scale not given here;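 cells exposed to compound for 48 h; stained nuclei by imaging scaled within each plate; lower means fewer cells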
# HSV replic up primary fold: second read-out of HSV replic up, no call of its own (marks repeat the call); fold increase; compound at 10 µM; measured here: primary screen fold increase 10 uM; tested in PC3 cells;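 GFP signal in the first replicate; 1 = infected wells without compound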
# Active calls of the source: *; i = inactive; / = not tested or not shown.
# Results follow in this order: PKD1 inh | GALR2 ag | Insulin prom inh | Insulin prom inh cell count | HSV replic up | HSV replic up primary fold | RGS16-Gao HTS
[1] O=S(=O)(c1ccccc1)N1CCN(c2ncnc3sc(-c4ccccc4)cc23)CC1
  3 | -1.3 | -22 | 98 | i | 0.88 | 83
[2] Cc1nc2cc(-c3ccccc3)nn2c(C)c1CCC(=O)NCc1ccco1
  3 | -2.6 | / | / | i | 0.98 | 97
[3] Cc1nc2c([nH]1)C1(CCN(Cc3ccccc3)CC1)C(C#N)=C(N)O2
  2 | 0.5 | -29 | 101 | i | 0.91 | 208
[4] COc1ccc(C(=O)CSc2nnc(-c3ccco3)c(-c3ccco3)n2)cc1
  0 | / | -200 | 5 | i | 1.2 | 93
[5] CCC(=O)Nc1ccc(F)c(Cl)c1
  -11 | -1.3 | -22 | 86 | i | 0.97 | 97
[6] O=C(NCc1cccs1)C1CCN(S(=O)(=O)c2ccc(Br)s2)CC1
  -2 | -0.3 | -48 | 97 | i | 0.95 | 103
[7] O=C(NCCc1ccccc1)c1nc2c(nnn2Cc2ccccc2Cl)c(=O)[nH]1
  -3 | -0.5 | -58 | 132 | i | 1.3 | 100
[8] Cc1cc(NC(=O)CN2CCN(C)CC2)no1
  0 | / | / | / | i | 1.1 | 105
[9] O=C(NCc1ccco1)c1n[nH]c(=O)c2ccccc12
  -2 | -1.8 | 33 | 58 | i | 1.1 | 135
[10] CCN(CC)c1cc(Oc2ccccc2)ncn1
  -3 | -0.3 | -45 | 113 | i | 0.94 | 106

# Carrying on.
# Results follow in this order: PKD1 inh | GALR2 ag | Insulin prom inh | Insulin prom inh cell count | HSV replic up | HSV replic up primary fold | RGS16-Gao HTS
[11] O=c1[nH]c2ccc(NC(=S)Nc3ccccc3Cl)cc2[nH]1
  4 | -2.3 | 5 | 146 | i | 0.93 | 97
[12] CCOC(=O)c1ccc(NC(=O)Cn2cnc3cc(C)c(C)cc32)cc1
  / | / | / | / | i | 0.95 | 99
[13] O=C(CCc1ccccc1)NC(=S)NCc1ccco1
  -1 | / | / | / | i | 1.1 | 103
[14] COc1ccc(CCCc2nnc(SCC(=O)Nc3nccs3)n2C)cc1C
  -4 | -0.4 | 50 | 99 | i | 1.2 | 101
[15] O=C(COC(=O)CCC(=O)c1cccs1)NCc1ccco1
  -8 | 0.0 | 0 | 139 | i | 1 | 102
[16] Clc1ccccc1CN(Cc1ccccc1)C(c1cccs1)c1nnnn1C1CCCC1 (centres undefined)
  3 | -0.3 | / | / | i | 1.1 | 81
[17] Cc1cc2cc(CNC(=S)Nc3ccc(OC(F)(F)F)cc3)ccc2[nH]1
  -10 | -0.6 | 32 | 136 | / | / | 119
[18] CCOC(=O)N1CCC(N2Cc3cccc(C(=O)Nc4cc(F)ccc4F)c3C2=O)CC1
  1 | -1.1 | / | / | i | 0.95 | 111
[19] Nc1ccc(Oc2ccccc2F)nc1
  / | / | / | / | i | 1.6 | 102
[20] Cc1cccc(-n2c(-c3ccco3)n[nH]c2=S)c1
  25 | -0.8 | 8 | 120 | i | 0.96 | 47

# Looked up by compound from above:
# Results follow in this order: PKD1 inh | GALR2 ag | Insulin prom inh | Insulin prom inh cell count | HSV replic up | HSV replic up primary fold | RGS16-Gao HTS
[18] CCOC(=O)N1CCC(N2Cc3cccc(C(=O)Nc4cc(F)ccc4F)c3C2=O)CC1
  1 | -1.1 | / | / | i | 0.95 | 111
[6] O=C(NCc1cccs1)C1CCN(S(=O)(=O)c2ccc(Br)s2)CC1
  -2 | -0.3 | -48 | 97 | i | 0.95 | 103
[9] O=C(NCc1ccco1)c1n[nH]c(=O)c2ccccc12
  -2 | -1.8 | 33 | 58 | i | 1.1 | 135
[5] CCC(=O)Nc1ccc(F)c(Cl)c1
  -11 | -1.3 | -22 | 86 | i | 0.97 | 97
[16] Clc1ccccc1CN(Cc1ccccc1)C(c1cccs1)c1nnnn1C1CCCC1 (centres undefined)
  3 | -0.3 | / | / | i | 1.1 | 81
[1] O=S(=O)(c1ccccc1)N1CCN(c2ncnc3sc(-c4ccccc4)cc23)CC1
  3 | -1.3 | -22 | 98 | i | 0.88 | 83
[4] COc1ccc(C(=O)CSc2nnc(-c3ccco3)c(-c3ccco3)n2)cc1
  0 | / | -200 | 5 | i | 1.2 | 93

# (more compounds)
# Results follow in this order: PKD1 inh | GALR2 ag | Insulin prom inh | Insulin prom inh cell count | HSV replic up | HSV replic up primary fold | RGS16-Gao HTS
[21] C=CCn1c(SCC(=O)Nc2ccc3c(c2)CCC3)nnc1-c1cccs1
  4 | -1.4 | -78 | 104 | i | 0.93 | 102
[22] CC(C)Cc1ccc(C(C)C(=O)Nc2ccc(O)cc2)cc1 (centres undefined)
  -1 | / | / | / | i | 0.87 | 103
[23] Cc1ccc2c(c1)N(C(=O)CCC(=O)N1CCc3ccccc3C1)CCO2
  -9 | -0.1 | -7 | 95 | i | 0.94 | 100
[24] CC(C)Nc1nc(NC(C)C)nc(N(C)N)n1
  4 | -1.0 | 43 | 67 | i | 0.87 | 97
[25] COc1cccc(C(C(=O)NC2CCCCC2)N(CC2CCCO2)C(=O)CNC(=O)c2ccco2)c1 (centres undefined)
  -9 | -2.1 | -48 | 137 | i | 0.8 | 104
[26] COc1ccc(/C=N/NC(=O)C(N)=O)c(OC)c1OC
  -4 | -1.6 | -27 | 63 | i | 0.97 | 77
[27] Cc1c(C(N)=O)sc2ncn(CCOc3ccccc3)c(=O)c12
  -2 | / | -82 | 25 | i | 0.95 | 119
[28] CCCN1C(=O)/C(=C/c2cc(C)n(C)c2C)SC1=Nc1ccc(OCC)cc1
  -4 | -1.2 | / | / | i | 0.86 | 100
[29] C=CCc1cccc2cc(C(=O)NNC(=O)c3ccncc3)c(=O)oc12
  5 | / | 40 | 112 | i | 0.93 | 104
[30] CCCNC(=O)COC(=O)c1cc(C)nc2ccccc12
  -2 | / | / | / | i | 0.99 | 98

# Further results
# Results follow in this order: PKD1 inh | GALR2 ag | Insulin prom inh | Insulin prom inh cell count | HSV replic up | HSV replic up primary fold | RGS16-Gao HTS
[31] CC(CNS(=O)(=O)c1ccccc1)(c1ccccc1)N1CCCCC1 (centres undefined)
  / | / | / | / | i | 1 | 97
[32] NC(=O)C1CCN(C2CC(=O)N(Cc3ccc(N4CCCC4=O)cc3)C2=O)CC1 (centres undefined)
  -3 | -1.1 | 7 | 67 | i | 1 | 103
[33] COC(=O)c1ccc(NC(=O)CSc2nc3ccccc3c(=O)[nH]2)cc1
  -6 | -1.8 | 21 | 96 | i | 1 | 101
[34] O=C1CC(c2cccs2)c2ccc3ccccc3c2N1 (centres undefined)
  -9 | / | 7 | 127 | i | 0.88 | 98
[35] CCOC(=O)C1=C(N)Oc2c(oc(CO)cc2=O)C1c1ccc(F)cc1 (centres undefined)
  -3 | -0.6 | 23 | 183 | i | 1 | 109
[36] Cc1cccc(NC(=O)C2=C(O)c3ccccc3N(C)S2(=O)=O)c1
  -5 | -0.8 | / | / | i | 0.83 | 99
[37] CCN1CCN(c2cc(C)nc(-c3ccccc3O)n2)CC1
  / | / | / | / | i | 1.2 | 94
[38] CCOC(=O)c1c(NC(=S)NC(=O)c2ccco2)sc2c1CCCC2
  -9 | -1.3 | 9 | 112 | i | 0.95 | 104
[39] C[C@H](C(=O)C=[N+]=[N-])N1C(=O)c2ccccc2C1=O
  -10 | -0.9 | -31 | 98 | i | 0.89 | 103
[40] CCC(=O)c1ccc(OCC(=O)NCC2(N3CCCCC3)CCCCC2)cc1
  3 | / | -7 | 65 | i | 1 | 98

# Structures listed so far that have a Cl atom:
# Results follow in this order: PKD1 inh | GALR2 ag | Insulin prom inh | Insulin prom inh cell count | HSV replic up | HSV replic up primary fold | RGS16-Gao HTS
[5] CCC(=O)Nc1ccc(F)c(Cl)c1
  -11 | -1.3 | -22 | 86 | i | 0.97 | 97
[7] O=C(NCCc1ccccc1)c1nc2c(nnn2Cc2ccccc2Cl)c(=O)[nH]1
  -3 | -0.5 | -58 | 132 | i | 1.3 | 100
[11] O=c1[nH]c2ccc(NC(=S)Nc3ccccc3Cl)cc2[nH]1
  4 | -2.3 | 5 | 146 | i | 0.93 | 97
[16] Clc1ccccc1CN(Cc1ccccc1)C(c1cccs1)c1nnnn1C1CCCC1 (centres undefined)
  3 | -0.3 | / | / | i | 1.1 | 81
